GIV Gai3 FP: inhibitors of GIV peptide binding to Galpha-i3, primary screen, biochemical, fluorescence polarization, FITC-GIV GBA peptide, rat Galphai3; Guanine nucleotide-binding protein G(i) subunit alpha-3 (Rattus norvegicus), P08753; 90 min; hits give low values; scaled: aluminum fluoride 0%, vehicle 100%; percent of control (FP), % (test concentration not listed); 0.42% of 210,000 active; AID 1224905, 2016;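 active means replicate mean at 85% of control or lower, very high polarization wells dropped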;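 further: wells of about 15 µL received 100 nL stock; the first replicate is given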
Target sequence (P08753 whole entry, looked up): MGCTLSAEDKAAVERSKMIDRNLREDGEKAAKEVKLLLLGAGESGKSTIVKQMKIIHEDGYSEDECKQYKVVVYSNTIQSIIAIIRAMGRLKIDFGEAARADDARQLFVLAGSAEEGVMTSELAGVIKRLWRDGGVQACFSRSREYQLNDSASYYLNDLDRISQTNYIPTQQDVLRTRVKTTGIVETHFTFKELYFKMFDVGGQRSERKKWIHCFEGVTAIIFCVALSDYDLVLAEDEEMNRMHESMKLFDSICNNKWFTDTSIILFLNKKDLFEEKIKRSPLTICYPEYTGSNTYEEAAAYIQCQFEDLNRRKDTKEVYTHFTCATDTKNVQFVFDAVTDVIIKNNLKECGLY
* hit, by the source's call.

SMILES | GIV Gai3 FP
Cn1c(=O)c2c(ncn2Cc2cccc(Cl)c2)n(C)c1=O | 115
Cc1ccc(NC(=O)Nc2nnc(CC(=O)NCc3ccccc3)s2)cc1Cl | 104
Brc1ccc(C2=NN(c3ccccc3)C3(SC(c4ccccc4)=NN3c3ccccc3)c3ccccc32)cc1 (configuration not stated) | 101
O=C(NC1CC(=O)N(C2CCCC2)C1)c1ccc(Br)o1 (configuration not stated) | 106
COc1ccccc1Cn1c(SC)nc2ccc(Br)cc2c1=O | 105
Brc1cc(Br)c2nc(-c3ccccc3)c(-c3ccccc3)nc2c1 | 114
CCCNC(=O)c1cc2n(n1)CCCC2 | 100
Cc1ccc(NC(=O)c2ccc(=O)n(CC(=O)NCC3CCCO3)n2)cc1 (configuration not stated) | 98
O=C1c2ccccc2C(=O)N1CCn1c2ccccc2c2nc3ccccc3nc21 | 118
CCOC(=O)C1(C)C=C(Nc2ccc(O)cc2)C(=O)N1c1ccc(O)cc1 (configuration not stated) | 106
Cc1ccc(C)c(S(=O)(=O)Nc2ccc3nnc(-c4cccc(Br)c4)n3n2)c1 | 105
O=C1CCCc2oc3c(cc(NS(=O)(=O)c4ccc5ccccc5c4)c4ccccc43)c21 | 116
CCOC(=O)c1nnn(-c2nonc2N)c1CN1CCC(C)CC1 | 116
Cc1cccc(C(=O)N2CCC[C@@H]2C(=O)NCc2csc(C)n2)c1 | 101
COc1cccc(-n2c(=S)sc3c2nc(SCC(=O)N2CCCC2)n2c4ccccc4nc32)c1 | 108
COc1cc(/C=C2\N=C(c3ccc([N+](=O)[O-])cc3Cl)OC2=O)cc(Br)c1OC(C)=O | 112
O=C(CCc1nc(CSc2nc3cc(Cl)ccc3o2)no1)Nc1c(F)cccc1F | 110
COc1ccc(-c2cc(C(F)(F)F)n3ncc(C(=O)Nc4cccnc4Cl)c3n2)cc1OC | 117
C=CCc1ccc(OCCOc2cccc(-c3nc4sc5c(c4c(=O)[nH]3)CCCC5)c2)c(OC)c1 | 110
Cc1ccc(-c2nc3cnc(Br)cn3c2Nc2ccc3c(c2)OCCO3)cc1 | 106
CCNc1cc(Nc2ccc(C)cc2)c2c3c(onc13)-c1ccccc1C2=O | 116
CC(C)c1ccc(NC(=O)C2CCCN(c3ncnc4c3oc3ccccc34)C2)cc1 (configuration not stated) | 102
CCOC(=O)C1=C(O)/C(=C/c2ccccc2)SC1=Nc1cccc2ccccc12 | 107
Cc1ccc2c(c1)-c1c(sn(-c3ccc(C)c(C)c3)c1=S)C(C)(C)N2Cc1ccccc1 | 107
CCc1ccc(C(=O)N2CCN(c3nc4ccccc4n(CC)c3=O)CC2)cc1 | 99
O=C(CCN1CCN2CCCCC2C1)N1c2ccccc2Sc2ccc(C(F)(F)F)cc21 (configuration not stated) | 109
CCOc1ccc2nc(/N=C/c3nc(-c4cccc5ccccc45)oc3O)sc2c1 | 113
CC(=O)Nc1ccc2[nH]c(=O)cc(C)c2c1 | 102
O=c1c2ccccc2c2nc3c(c(-c4cccc(Br)c4)c12)c(=O)c1ccccc13 | 111
Nn1cnn2c(SCC(=O)Nc3nnc(SCC(=O)Nc4ccc(S(N)(=O)=O)cc4)s3)nnc12 | 102
COc1cccc2cc(-c3csc(NC(=O)CCC(=O)NCCCN4CCC(C)CC4)n3)c(=O)oc12 | 111
COc1cc(C=Nc2c(C)n(C)n(-c3ccccc3)c2=O)ccc1OCc1ccccc1 | 105
CC[n+]1ccc(/C=C2\Sc3ccccc3N2CCCS(=O)(=O)[O-])cc1 | 117
COc1ccc(OC)c(C2C3CCCC=C3C(C#N)=C(N)C2(C#N)C#N)c1 (configuration not stated) | 113
O=C1c2sc3nnc(-c4ccccc4)c(=O)n3c2C(=O)N1c1ccc(Cl)c(Cl)c1 | 121
CC(C)OP(=O)(OC(C)C)/C(CC12CC3CC(CC(C3)C1)C2)=N\O | 107
CCOC(=O)c1c(NC(=O)C(C)Sc2nnc(CNC(=O)COc3ccc(Cl)cc3Cl)n2C)sc2c1CCCC2 (configuration not stated) | 105
O=C(NC1CCCC1)c1ccc2ccnc(N3CCN(c4ccc(F)cc4)CC3)c2c1 | 104
Cc1cc(-c2csc(S(=O)(=O)Nc3ccc(Br)c(C)c3)c2)on1 | 109
Cc1cccc(N2CCN(CCNC(=O)c3csc(-c4ccncc4)n3)CC2)c1C | 105
Cc1cc2c(c(=O)o1)C(c1ccccc1OC(=O)N1CCOCC1)C(C#N)=C(N)O2 (configuration not stated) | 111
CCn1c(N2CCN(C(=O)Nc3ccccc3OC)CC2)nc2ccccc21 | 104
CCCC1(CCC)NC(=S)N(c2ccccc2)N1 | 119
CNC(=O)CN1c2ccccc2C(C)(C)C12C=Cc1c(ccc3ccccc13)O2 (configuration not stated) | 108
CCN1CCCC1CNS(=O)(=O)c1ccc2c(c1)N(Cc1noc(C3CCC3)n1)C(=O)CO2 (configuration not stated) | 105
Cc1nn(-c2ccccc2)c2ccn(CC(=O)NCCN3CCN(C)CC3)c(=O)c12 | 103
COc1ccccc1NC(=O)CSc1nc2ccccc2c(=O)n1CCC(=O)NCCc1ccc(OC)c(OC)c1 | 114
CNC(=O)c1ccc(-c2nc3cc(NS(=O)(=O)c4cc(C)c(C)cc4C)ccc3n2C)cc1 | 100
Cc1ncsc1CN1CCCC(c2nncn2-c2ccccc2)C1 (configuration not stated) | 110
COc1ccc(N2CC(O)(c3ccc(C)cc3)[N+]3=C2SCCC3)cc1 (configuration not stated) | 108
CCOC(=O)N1CCN(C(=O)c2ccc(N3CC4CC(C3)c3cccc(=O)n3C4)c(NC(=O)c3cccs3)c2)CC1 (configuration not stated) | 102
CCc1nc(-c2csc(S(=O)(=O)Nc3ccc(Br)cc3F)c2)no1 | 106
COc1cccc(OC)c1C(=O)Oc1ccc2c(=O)c(Oc3ccccc3Br)coc2c1 | 102
O=C(CCC(=O)N1CCCN(c2nc3cccnc3s2)CC1)NCCN1CCCC1 | 103
O=C1N(c2ccccc2)C(c2ccccc2)N2CCCN12 (configuration not stated) | 104
Cc1ccc(S(=O)(=O)Nc2ccccc2C(=O)Nc2sc3c(c2-c2nc4ccccc4s2)CCCC3)cc1 | 125
Cc1ccccc1N/C(SCc1cccc(F)c1)=C(/C#N)C(=O)NCc1cccs1 | 103
CCCCCCN1C(=O)C(=O)/C(=C(\O)c2ccccc2)C1c1ccc(F)cc1 (configuration not stated) | 101
CC(C)C(C(=O)O)N1C(=O)C2C3c4ccccc4C(c4ccccc43)C2C1=O (configuration not stated) | 101
O=C(Nc1nc2ccccc2n1CCOc1ccccc1)c1ccccc1Cl | 104

Brought forward from above: 3 entries, followed by the next part.
SMILES | GIV Gai3 FP
CCCCCCN1C(=O)C(=O)/C(=C(\O)c2ccccc2)C1c1ccc(F)cc1 (configuration not stated) | 101
CC(C)C(C(=O)O)N1C(=O)C2C3c4ccccc4C(c4ccccc43)C2C1=O (configuration not stated) | 101
O=C(Nc1nc2ccccc2n1CCOc1ccccc1)c1ccccc1Cl | 104
CC(C)CCn1nc2ccc(S(=O)(=O)N3CCSCC3)cn2c1=O | 96
Cc1noc(C)c1CCNC(=O)CN1C(=O)CN(C(=O)NCc2ccccc2)c2ccccc21 | 104
CN1C(=O)CCc2cc(NC(=O)C3CCCO3)ccc21 (configuration not stated) | 96
CCOC(=O)c1cc(C)nc2c1c(=O)n(Cc1nc(-c3ccc(C(C)C)cc3)oc1C)c(=O)n2C | 100
CCc1cc(C2CCCN2C(=O)c2ccn(CC)n2)on1 (configuration not stated) | 101
COc1cc(/C=C2/N=C(c3ccccc3)OC2=O)cc(Br)c1OC(C)=O | 122
COC(=O)C1=C(C(=O)OC)SC(=C2C(=S)C(C)(C)N(C(=O)CN3C(=O)c4ccccc4C3=O)c3ccccc32)S1 | 103
CCOC(=O)c1sc2nc(SCC(=O)Nc3ccc(OCC)cc3)n(Cc3ccco3)c(=O)c2c1C | 108
Cc1cccc(NC2=NC(=S)N(CC#N)C23CCCCC3)c1 | 99
CC(C)NC(=O)CCn1c(=O)c2ccccc2n2c(SCc3cccc(F)c3)nnc12 | 101
COc1cc(C(=O)Nc2ccc3c(c2)N(C(=O)CCN(C)C)c2ccccc2CC3)cc(OC)c1OC | 106
Cn1c2ccccc2c2nnc(S)nc21 | 106
Ic1ccc(Nc2nc3nonc3n3cnnc23)cc1 | 121
O=C1NC(c2cccc(F)c2)/C(=C(/O)c2ccc(Br)cc2)C1=O (configuration not stated) | 112
COc1ccc(NS(=O)(=O)c2cc(-c3nc(C(C)(C)C)cs3)cs2)cc1F | 112
C=CCn1c(=O)c(C(=O)Nc2nc3ccc(Cl)cc3s2)c(O)c2ccccc21 | 105
O=C(Nc1cccc(C(=O)N2CCCC(C(=O)NCCc3ccccc3)C2)c1)c1ccccc1Cl (configuration not stated) | 108
Cc1ccc(C(=O)NCCC2CCN(C(=O)c3ccc(F)cc3)CC2)cc1 | 96
Cc1cc2nc(CN3CCN(c4ccccc4F)CC3)c(=O)[nH]c2cc1C | 97
Cc1ccc(-n2ccc(=O)c(-c3nc(-c4ccc(F)c(Br)c4)no3)n2)cc1 | 102
CC1CC(C)CN(CC2CCN(C(=O)Nc3cccc(F)c3)CC2)C1 (configuration not stated) | 100
O=C(Nc1ccccc1Cl)Nc1nc(-c2ccco2)cn1/N=C/c1ccccc1 | 107
CC1(C)CC(=O)C2=C(C1)c1c(ccc3ccccc13)NC2c1cc([N+](=O)[O-])ccc1O (configuration not stated) | 114
Cn1c(=O)c2c(ncn2Cc2ccc(Br)cc2)n(C)c1=O | 102
CCOC(=O)c1c2n(c3cc(Br)c(OC)cc13)CCN(c1cccc(Cl)c1)C2 | 106
Cc1ccc2c(c1)-c1nc3ccccc3cc1C2=O | 105
Cc1ccc(S(=O)(=O)NCCc2ccccc2)c2nsnc12 | 104
COc1ccccc1CNC(=O)CCC(=O)Nc1nc(-c2cc3ccccc3oc2=O)cs1 | 107
O=C(NCc1nc2cccnc2n1Cc1ccccc1)c1ccccc1Cl | 103
CCc1c(C)nc2ncnn2c1NC(C)C | 97

Looked up one by one from the list above, 3 records:
SMILES | GIV Gai3 FP
O=C(NCc1nc2cccnc2n1Cc1ccccc1)c1ccccc1Cl | 103
Cc1ccc2c(c1)-c1nc3ccccc3cc1C2=O | 105
CCOC(=O)c1c2n(c3cc(Br)c(OC)cc13)CCN(c1cccc(Cl)c1)C2 | 106

Following part:
SMILES | GIV Gai3 FP
CC(C)CCNC(=O)C1CCCN1C(=O)c1ccc(NS(=O)(=O)c2ccc(Cl)cc2)cc1 (configuration not stated) | 103
CCc1ccc(C2N(c3ccc(C)cc3)CCN2c2ccc(C)cc2)cc1 | 108
COc1ccccc1Oc1ccc(C(F)(F)F)cc1NC(=O)c1c(O)c2ccccc2[nH]c1=O | 100
Cc1ccc(C2CC(c3ccco3)=Nc3ccccc3S2)cc1 (configuration not stated) | 104
Cc1ccc(NC(=O)C(=O)NCCCO)cc1 | 112
CCS(=O)(=O)Nc1ccc(C2(C(=O)N3CCCC3)CCCCC2)cc1 | 98
Cc1ccc(CSc2nnc3c(=O)n(-c4ccc(Br)cc4)ccn23)cc1 | 106
COc1ccc(C(C2C(=O)N(c3ccccc3)N=C2C)C2C(=O)N(c3ccccc3)N=C2C)cc1OC (configuration not stated) | 77*
CC1CCC(NC(=O)C2Oc3ccccc3NC2=O)CC1 (configuration not stated) | 97
COc1ccc(C2=NN(c3ccc([N+](=O)[O-])cc3)C(=O)/C2=C\c2ccc(OC)c(OC)c2OC)cc1 | 106
OC(CN1CCN(c2ccccc2Cl)CC1)c1ccc2c(c1)OCO2 (configuration not stated) | 103
N#CC1=C(N)C(C#N)(C#N)C(c2ccccc2Cl)C2CN(Cc3ccccc3)CC=C12 (configuration not stated) | 188
CC12COC3(C(=O)Nc4ccccc4Br)CC1CCC32C (configuration not stated) | 120
Cc1nn(-c2ccccc2)c2sc(C(=O)OCCOc3ccccc3)cc12 | 109
Cc1ccc(Cc2nc(CCNS(=O)(=O)c3cc(C)c(C)cc3C)n[nH]2)cc1 | 108
CCOC(=O)c1nnn(-c2nonc2N)c1CN1CCN(C)CC1 | 131
O=c1[nH]cnc2c1nc(NCc1ccccc1)n2C1OC(CO)C(O)C1O (configuration not stated) | 109
Cc1ccc(Cn2c(=O)c3c(cnn3C)n3c(SCC(N)=O)nnc23)cc1 | 127

In a second layout: entries from further up.
Compound	GIV Gai3 FP
CCS(=O)(=O)Nc1ccc(C2(C(=O)N3CCCC3)CCCCC2)cc1	98
Cc1ccc(C2CC(c3ccco3)=Nc3ccccc3S2)cc1 (configuration not stated)	104

Look-ups from the entries so far.
GIV Gai3 FP with `COc1ccccc1Oc1ccc(C(F)(F)F)cc1NC(=O)c1c(O)c2ccccc2[nH]c1=O` is entered as 100
GIV Gai3 FP with `COc1ccc(C2=NN(c3ccc([N+](=O)[O-])cc3)C(=O)/C2=C\c2ccc(OC)c(OC)c2OC)cc1` is entered as 106

Screens (PubChem)

These rows are one share of the data, so the mix of outcomes need not match the whole.
